VACV mCherry inh = qHTS for Stage-Specific Inhibitors of Vaccinia Orthopoxvirus: mCherry Reporter Primary qHTS; Vaccinia virus mCherry reporter infection, fluorescence; about a quarter of the inactives have no number; Potency, µM (highest dose often 36.5 µM), inactives show at the highest dose activity change, negative = inhibition, most hits filed as inhibitors; hit rate 0.63% among 310,000; active = well fitted inhibition curve with a large enough effect; inconclusive = small, poorly fitted or top-dose-only effect; inactive = no such curve, though single readings can be large or run the other way; tested in A549 cells; also: nearly all actives have a fitted effect of over 35% in size; inactives centre near -10
Vaccinia Venus = qHTS for Stage-Specific Inhibitors of Vaccinia Orthopoxvirus: Venus Reporter Primary qHTS | Vaccinia virus Venus reporter expression, fluorescence | Potency, µM (top dose mostly 36.5 µM), inactives show top-dose activity change, negative = inhibition, most hits filed as inhibitors | hit rate 0.46% among 330,000 | AID 720580, 2013; active means well fitted inhibition curve with a large enough effect; inconclusive means small, poorly fitted or top-dose-only effect; inactive means no such curve, though single readings can be large or run the other way; tested in A549 cells; also: nearly all actives have a fitted effect of over 30% in size; inactives centre near -10
* = called active by the depositor; i = inactive; ? = inconclusive; · = not tested or not shown; [ ] = another dose, or the depositor's remark. % is scaled to controls: 0 for no effect and ±100 for the full control effect; potency is read from the fitted curve at half-maximal effect. This is a random part of the collection; any-hit rate near 0.82%.

smiles,Vaccinia Venus,VACV mCherry inh
Cc1c(C(=O)c2ccc(Cl)c([N+](=O)[O-])c2)c2ccccn2c1CCC#N,-16%,i
CC(Sc1ccc2ccccc2c1)C(=O)NC(N)=O (stereo not given),-1%,-1%
COc1ccc([N+](=O)[O-])cc1NC(=O)CSCc1ccccc1C,-14%,-14%
COc1ccccc1Nc1cc(C)nc2c(C)ccc([N+](=O)[O-])c12,-12%,i
CN1c2ccccc2Oc2nnc(Cl)cc21,3%,-1%
COc1cc(CNCc2ccccn2)ccc1OCc1ccc(Cl)cc1Cl,?,·
Cc1nn(CC(=O)c2cccc(Cl)c2)c(C)c1[N+](=O)[O-],-3%,-18%
CCC(Oc1ccc(Br)cc1Cl)C(=O)Nc1nnc(C2CC2)s1 (stereo not given),-4%,i

The listing continues:
smiles,Vaccinia Venus,VACV mCherry inh
CC1CCCCC1NC(=O)CSc1nnc(-c2ccccc2)n1N (stereo not given),-6%,i
COc1ccc(OC)c(/C=N/NC(=O)c2ccncc2)c1,-8%,-13%
Cn1cccc1C(=O)NC(=O)COC(=O)CNC(=O)c1ccc(Cl)cc1Cl,5%,3%
O=C(CN(Cc1ccccc1)C(=O)c1csnn1)NCc1ccc2c(c1)OCO2,-14%,-8%
CCOC(=O)N1CCN(c2ncnc3c2[nH]c2ccc(OC)cc23)CC1,?,?
CC(/C=C/c1cccc(Oc2ccc(F)cc2)c1)N(O)C(N)=O (stereo not given),-24%[60.7 µM],-19%[60.7 µM]
Brc1ccccc1CNCCc1ccc2c(c1)OCO2,-15%,i
CCOC(=O)N/N=C(\C)c1ccc(Br)cc1,-7%,-3%

Exported with two lines to a compound: entries from further up
Each structure is followed by: Vaccinia Venus, VACV mCherry inh
O=C(CN(Cc1ccccc1)C(=O)c1csnn1)NCc1ccc2c(c1)OCO2
    -14%, -8%
CCOC(=O)N1CCN(c2ncnc3c2[nH]c2ccc(OC)cc23)CC1
    ?, ?
CC(/C=C/c1cccc(Oc2ccc(F)cc2)c1)N(O)C(N)=O (stereo not given)
    -24%[60.7 µM], -19%[60.7 µM]
Brc1ccccc1CNCCc1ccc2c(c1)OCO2
    -15%, i

(cont.)
smiles,Vaccinia Venus,VACV mCherry inh
CC1(c2ccc(OC(F)F)cc2)NC(=O)N(CC(=O)Nc2ccc3[nH]c(=O)[nH]c3c2)C1=O (stereo not given),4%,-14%
O=c1[nH]/c(=C\c2ccc(N(CCCl)CCCl)cc2)c(=O)[nH]/c1=C\c1ccc(N(CCCl)CCCl)cc1,10%,38%[activator]
CCCCCCCCCCN(CCCCCCCCCC)c1ccc(/C=C/c2ccnc3ccccc23)cc1,11%,24%
O=C(N/N=C/c1ccc2c(c1)OCO2)c1ccc(Br)o1,-21%,i
Oc1ccccc1CN1CCC(C(O)(c2ccccc2)c2ccccc2)CC1,-21%,-26%
CCOC(=O)c1ccc(NC(=O)c2ccc(NS(C)(=O)=O)cc2)cc1,-11%,-16%
O=C1c2ccccc2NC2(CCCC2)N1O,-24%,·
O=C(NCC1CCCO1)c1cn(-c2ccccc2)nc1-c1ccccc1 (stereo not given),-9%,-21%

Continuation:
smiles,Vaccinia Venus,VACV mCherry inh
Cc1ccc(S(=O)(=O)NCC(=O)OCC(=O)NC(=O)c2cccn2C)cc1,-4%,-13%
Clc1ccc(N/N=C/c2cccs2)nn1,-11%,-14%
Cc1ccc2c(CNCCc3ccccc3)c(C(=O)O)n(Cc3ccccc3C)c2c1,-23%,-25%
Cc1ccc(CNC(=O)C2CC(=O)N(c3ccc(OCC(=O)N4CCCC4)cc3)C2)cc1 (stereo not given),-20%,·
Cc1ccc(NC(=O)c2nc[nH]c2C(=O)NCCCCNC(=O)c2[nH]cnc2C(=O)Nc2ccc(C)cc2)cc1,?,?
O=C(Nc1nc(-c2ccccn2)cs1)c1cc2ccccc2o1,-4%,-11%
C[C@@H]1NC(=O)c2cc([N+](=O)[O-])cc(I)c2NCCCC[C@@H](C(N)=O)NC(=O)[C@H](CC(N)=O)NC1=O,4%,i
CC(C(=O)NCC1CCCCC1)N1CCc2ccccc2C1 (stereo not given),-11%,-14%

Next section
smiles,Vaccinia Venus,VACV mCherry inh
CCC(=O)N1CCCC(C)(C(=O)Nc2ccc3scnc3c2)C1 (stereo not given),1%,27%
Cn1c(CCN2CCOCC2)nc2cc(NC(=O)c3cccs3)ccc21,-23%,-8%
CCC(=NCC1CCCO1)c1c(O)n(-c2ccccc2C)c(=O)[nH]c1=O (stereo not given),-3%[7.34 µM],i[7.34 µM]
COc1ccc(C(=O)NCCn2cc(SCC(=O)Nc3cccc(C)c3)c3ccccc32)cc1,-17%,-16%
O=c1oc(/C=C/c2ccccc2)nc2sc3c(c12)CCC3,-12%,i
Cc1ccc(OCC(=O)Nc2cccc(-c3nnc(-c4ccccc4)o3)c2)cc1,-2%,-7%
CC1(c2nnc(-c3ccc(Cl)cc3)o2)CC(c2cccnc2)=NO1 (stereo not given),-9%,15%
CC(C)c1nnc(NC(=O)c2cccs2)s1,-4%,i

More records
smiles,Vaccinia Venus,VACV mCherry inh
COc1ccccc1NC(=O)Cc1nnc(SCC(=O)NC2CCCCC2)n1C,11%,-11%
S=C(NCCc1ccccc1)NC1CCC(NC(=S)NCCc2ccccc2)CC1 (stereo not given),1%,-5%
COc1ccc(Br)cc1CNCCc1ccc2c(c1)OCO2,-16%,-22%
Cc1ccccc1CSc1cn(CC(=O)N2CCCCCC2)c2ccccc12,-7%,-7%
C=C1C=C(C(F)F)n2ncc(C(=O)N3CCN(c4ccccc4)CC3)c2N1,-25%,?
Cc1cc(Cl)ccc1OCC(=O)OCC(=O)N(CC(C)C)c1c(N)n(Cc2ccccc2)c(=O)[nH]c1=O,-13%,?
C=C[C@@]12CN(C)[C@H]3[C@H]1[C@@]1(C(=O)Nc4ccccc41)C1CC2[C@@H]3CO1,-8%,-13%
O=C(NC1=NCCS1)c1ccccc1Br,0%[7.34 µM],-3%[7.34 µM]

More results:
smiles,Vaccinia Venus,VACV mCherry inh
COc1ccccc1NC(=O)c1ccc(NC(=O)CSc2ncn[nH]2)cc1,-5%,-10%
CC(NC(=O)CSc1ncccn1)c1ccc2c(c1)OCO2 (stereo not given),-12%,-16%
N=c1c2c(ncn1Cc1ccco1)Oc1ccc3ccccc3c1C2c1ccccc1 (stereo not given),?,?
Cc1ccccc1-n1nnnc1SCC(=O)c1c(N)n(C)c(=O)n(C)c1=O,-1%[7.34 µM],-3%[7.34 µM]
CCCCC[C@@H](C)N1C[C@H](COCc2ccccc2)Oc2cc(N3CC[C@H](O)C3)ccc2S1(=O)=O,-7%,23%
OC(c1ccccn1)C(O)c1ccccn1 (stereo not given),-5%,i
O=C(NCc1ccccn1)c1cccc(S(=O)(=O)Nc2ccc(SC(F)F)cc2)c1,-8%,-15%
COc1ccc(C(C(=O)NCc2ccccc2)n2c(-c3ccncc3)nc3ccccc32)cc1 (stereo not given),-15%,-5%

Next structures follow.
smiles,Vaccinia Venus,VACV mCherry inh
COc1cc(S(=O)(=O)N(Cc2ccccc2)CC2CCCO2)ccc1-n1cnnn1 (stereo not given),-5%,6%
COc1cc(OC)c(NC(=O)c2noc3c2CSc2ccccc2-3)cc1Cl,1%,5%
O=C(CN1C(=O)NC2(CCCCC2)C1=O)N1CCN(S(=O)(=O)c2ccc(F)c(F)c2F)CC1,?,?
CC(=O)c1cccc(NC(=S)NC2CC2)c1,-8%,i
Brc1cccc(-c2nnc3n2CCC3)c1,-17%,-2%
CCc1nc2ccc(C(=O)Nc3cccc(NS(C)(=O)=O)c3)cn2c1N(C=O)CCC(C)C,1%,41%[activator]
CC(=O)c1ccc(NC(=O)c2cnn3ccccc23)cc1,-14%,i
O=c1c2cc(N3CCOCC3)ccc2[nH]c(=S)n1Cc1ccc(Cl)cc1,-20%,-26%

Remaining list, next part.
smiles,Vaccinia Venus,VACV mCherry inh
O=C(Cc1ccccc1)N1CCC(O)(c2cccnc2)CC1,2%,8%
COc1cc(C)c(NC(=S)Nc2cccc(Cl)c2)cc1OC,-7%,-14%
NS(=O)(=O)c1ccc(NNC(=O)c2sccc2Cl)cc1,-9%,-7%
COc1ccccc1C(=O)Nc1cccc(C(=O)N2CCOCC2)c1,-18%,-7%
CC(=O)c1sc(NS(=O)(=O)c2ccc(C)cc2)nc1-c1ccccc1,9%,-1%
CC(=O)N1CCN(Cc2nc3cc(NC(=O)Cn4nc(C)c5ccccc5c4=O)ccc3n2C)CC1,-11%,-1%
COc1cccc(CN2CCNC(=O)C2CC(=O)N(C)C2CCOCC2)c1OC (stereo not given),1%,-12%
C=CCOC(=O)c1cn(CC)c2nc(C)ccc2c1=O,-24%,?

The results go on.
smiles,Vaccinia Venus,VACV mCherry inh
O=C(Nc1ccc(S(=O)(=O)Nc2ncccn2)cc1)C1CC(=O)N(c2ccc(Cl)cc2)C1 (stereo not given),-2%,13%
O=C(c1cccs1)N1C[C@@H](n2cc(C3CC3)nn2)[C@H](O)C[C@@H]1c1ccc(Cl)cc1,-11%,i
Cc1cccc(-n2c(SCC(=O)NCc3ccco3)nnc2-c2ccco2)c1,-8%,-14%
CCC(C)Cn1c(COc2ccc(OC)cc2)nc2ccccc21 (stereo not given),-13%,-11%
CC1=CC(c2ccccc2)n2nnnc2N1 (stereo not given),-13%,-7%
O=C(NCCc1ccccc1)/C(=N\O)c1ccccc1,-9%,-12%
COc1cc(C=NNC(=O)c2ccc(NS(=O)(=O)c3cccs3)cc2)cc(Br)c1O,5%,i
O=C(NCCc1c[nH]c2ccccc12)c1ccc(F)cc1F,-17%,-14%

(listing goes on)
smiles,Vaccinia Venus,VACV mCherry inh
CC(=O)Nc1ccccc1Sc1ccccc1,-12%,-18%
O=C(NCc1ccccc1)c1cncc(Br)c1,-13%,i
O=c1c2c(nc3c(-c4ccc(Cl)cc4)c[nH]n13)CCCC2,4.5µM*,?
CCC1=NN(C(=O)CCc2ccccc2)C(O)(C(F)(F)F)C1 (stereo not given),-7%,i
CC(=O)N(C)c1ccc(/C=C2\C=Cc3ccccc32)cc1,-16%,15%
Cc1occc1-c1nnc(SCC(=O)N2CCOCC2)n1CCc1ccccc1,-9%,i
COc1ccc(C(=O)NCCCNc2nc3cc(C)cc(C)c3cc2C#N)cc1,?,-3%
CN(C)S(=O)(=O)c1ccc(Cl)c(NC(=O)COC(=O)CCSc2ccccc2)c1,-11%,-11%

Single entries from the list.
CN(C)S(=O)(=O)c1ccc(Cl)c(NC(=O)COC(=O)CCSc2ccccc2)c1 @ Vaccinia Venus: -11%
CCC1=NN(C(=O)CCc2ccccc2)C(O)(C(F)(F)F)C1 (stereo not given) @ Vaccinia Venus: -7%

Later entries:
smiles,Vaccinia Venus,VACV mCherry inh
Cc1ccc(OCCCC(=O)N(C)CC(=O)Nc2c(C)cccc2C)cc1,-13%,-10%
CCOc1cc(NC(=S)NCC2CCCO2)c(OCC)cc1NC(=O)c1ccc(OC)cc1 (stereo not given),1%,-10%
Clc1ccc2nc(SCc3nnc(-c4ccccc4)o3)[nH]c2c1,-15%,-15%
Cc1ccc(NC(=O)c2cnc(SCC(=O)N3CCCc4ccccc43)n(C)c2=O)cc1C,-14%,i
COc1ccccc1NC(=O)NC1(C(=O)N2CCCCC2)CCCCC1,27%,-4%
O=S1(=O)CCN(Cc2ccc(Cl)cc2)CC1,1%,·
COc1ccc(C(=O)NC(=S)Nc2ccccc2F)cc1,-13%,-12%
COc1cccc2sc(NC(=O)c3ccc(S(=O)(=O)N4CCC(C)CC4)cc3)nc12,-14%,-12%

Further results.
smiles,Vaccinia Venus,VACV mCherry inh
O=C(CCNC(=O)c1ccc([N+](=O)[O-])cc1)NC1CCCCC1,4%,i
COc1ccccc1-c1nnc(N(C)C(=O)C2CCCO2)s1 (stereo not given),-7%,-16%
CCC(C(=O)NCc1ccc2c(c1)CCN2C(=O)c1ccc(F)cc1)c1ccccc1 (stereo not given),-4%,-1%
CCOc1cc(C(=O)Nc2ccncc2)cc(OCC)c1OCC,-6%,i
COc1cc(/C=C/C(=O)N2CCCc3ccccc32)cc(OC)c1OC,-11%,-16%
CC1(C(=O)Nc2ccc3c(c2)OCO3)Cc2c(-c3ccccc3)ccnc2O1 (stereo not given),-5%,13%
Cc1ccc(NCc2nc3ccccc3n2C)cc1,-8%,·
Cc1cccc(NC(=O)c2cc(NC(=O)C3CCCCC3C(=O)O)ccc2N2CCOCC2)c1 (stereo not given),-14%,i

Continuation:
smiles,Vaccinia Venus,VACV mCherry inh
CCCCOC(=O)c1c(C)oc2c1cc(NS(=O)(=O)c1cc(OC)ccc1OC)c1ccccc12,-8%,1%
COc1cc(/C=C(\C#N)C(=O)Nc2cccc3ncccc23)cc(OC)c1OC,-20%,-3%
COC(=O)[C@@H]1CCCN1C(=O)c1c(OC)cc(=O)n2c1CCN(Cc1ccc3cccnc3c1)CC2,-11%,-1%
Cn1cnnc1SCC(C)(C)NS(=O)(=O)c1ccc(Cl)cc1,-3%,7%
CC(=O)c1ccc(N(C(=O)Cn2nnc(-c3ccccc3)n2)C(C(=O)NC2CCCCC2)c2ccccn2)cc1 (stereo not given),-14%,-18%
COC(=O)c1ccc(NS(=O)(=O)N(C)C)cc1,1%,-10%
Cn1c(=O)[nH]c(=O)c2c1nc(NN)n2CCOc1ccccc1,-11%,-24%
CSc1nc2ccsc2c(=O)n1-c1ccccc1,-16%,i

Other records
smiles,Vaccinia Venus,VACV mCherry inh
OCCNCCOc1ccc(Cl)c(Cl)c1,-14%,-20%
C=CCc1cc2c(oc(=O)c3ccccc32)c(C)c1O,-23%,-20%
CCN(CC)c1ccc(/C=N/NC(=O)c2c(Cl)cnn2C)c(O)c1,?,1.1µM*
CCCNC(=O)CN(C)S(=O)(=O)c1c(C)cc(C)cc1C,4%,·

High-throughput results from PubChem.
